Assay outcomes: PubChem, ICCB-Longwood Screening Facility, Harvard Medical School
Sa growth inh: S. aureus growth inhibition at 42 and 30 °C, primary screen, LtaS inhibitor project, RN4220, two temperatures. OD600, 20 h, 42 °C; hits give low values. relative growth, % (concentration not given with the values). actives 0.53% (n = 170,000). AID 720641, 2013;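 active means growth at 42 °C up to 50% and 20 or more points under that at 30 °C, or under 10% at both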;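 further: 300 nL library stock went into each well; scaled to the means of positive and negative controls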
HCMV UL50-53 inh: inhibitors of HCMV UL50-UL53 interaction, biochemical, HTRF; HCMV UL50-UL53 nuclear egress complex (human cytomegalovirus); normalized percent inhibition; inhibition, % (test concentration not listed); actives 0.15% (n = 190,000);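 active means both replicates at 50% or more, plus weaker picks with an unusually low signal ratio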;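 further: stock transfer was 100 nL into about 20 µL; 0% = negative control wells and 100% = wells with untagged competitor protein; inactives centre near -12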
GIV Gai3 FP: inhibitors of GIV peptide binding to Galpha-i3, primary screen, biochemical, fluorescence polarization, FITC-GIV GBA peptide, rat Galphai3; Guanine nucleotide-binding protein G(i) subunit alpha-3 (Rattus norvegicus), P08753; 90 min; hits give low values; scaled: aluminum fluoride 0%, vehicle 100%; percent of control (FP), % (concentration not given with the values); actives 0.42% (n = 210,000);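 active means replicate mean at 85% of control or lower, very high polarization wells dropped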;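 further: wells of about 15 µL received 100 nL stock; the first replicate is given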
Target sequence (P08753 whole entry, looked up): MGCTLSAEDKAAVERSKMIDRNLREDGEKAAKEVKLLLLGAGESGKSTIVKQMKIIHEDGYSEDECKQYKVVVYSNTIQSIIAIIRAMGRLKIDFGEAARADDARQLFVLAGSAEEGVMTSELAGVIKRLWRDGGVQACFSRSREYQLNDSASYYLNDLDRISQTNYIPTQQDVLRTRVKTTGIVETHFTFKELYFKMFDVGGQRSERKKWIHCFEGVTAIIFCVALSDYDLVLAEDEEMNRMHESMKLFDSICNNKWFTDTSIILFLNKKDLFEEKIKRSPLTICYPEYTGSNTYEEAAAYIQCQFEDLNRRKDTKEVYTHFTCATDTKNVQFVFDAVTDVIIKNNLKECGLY
Sa growth inh second temp: second read-out of Sa growth inh, no call of its own (marks repeat the call); relative growth, %; measured here: growth at 30 °C;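 optical density after 20 h as mean of two plates; 100% = untreated growth and lower means inhibition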
Active calls of the source: *; . = not tested or not shown.

1: CC(=O)N1CCC2(CC1)OC(=O)C(C)=C2C(=O)NCc1cccc(Cl)c1
2: COc1ccc(NC(=O)CSc2nnc(Cc3cccn3C)n2CCc2ccccc2)c(OC)c1
3: CCOC(=O)c1ccccc1NC(=O)Cn1c(=O)n(Cc2ccccc2)c(=O)c2c(C)c(C)sc21
4: COC(=O)CSc1ccc(C#N)c(SCC(=O)OC)c1
5: CC(C)(C)C(=O)NC1CCN(CC(=O)N2CCCCCC2)CC1
6: Cc1ccc(CC(C#N)Sc2nnc(C3COc4ccccc4O3)n2C)cc1 (stereo not given)
7: O=C(Nc1nccs1)C1COc2ccccc2O1 (stereo not given)
8: Clc1ccc(CNc2ccccn2)cc1
Assay by compound,1,2,3,4,5,6,7,8
Sa growth inh,106,103,100,94,101,113,103,88
Sa growth inh second temp,91,71,83,91,84,85,88,80
HCMV UL50-53 inh,.,-21,-8,-11,0,-19,-14,0
GIV Gai3 FP,102,100,104,107,104,.,101,97

9: CC1CCCCN1CCCNC(=O)c1ccc2c(c1)sc1nc(-c3ccc(F)cc3)cn12 (stereo not given)
10: CC[N+]1=C(C)C(C)(C)c2cc(-c3ccccc3)ccc21
11: O=C1NC2(CCCC2)C(=O)N1Cc1ccc(Br)cc1
12: O=C(/C=C/c1cccs1)N(Cc1ccccn1)c1nc2ccccc2s1
13: COC(=O)c1ccc(OCC(O)CNCC2CCCO2)c(OC)c1 (stereo not given)
14: COCCN1C(=O)c2ccccc2C(C(=O)NCc2ccccn2)C1c1cn(C)c2ccccc12 (stereo not given)
15: CCSc1nc2c(c(=O)[nH]1)C(c1ccc(O)c(O)c1)CC(=O)N2 (stereo not given)
16: NC(=O)C1(N2CCCCC2)CCN(C(=O)Nc2ccc(F)cc2F)CC1
Assay by compound,9,10,11,12,13,14,15,16
Sa growth inh,99,106,104,98,88,91,.,92
Sa growth inh second temp,58,72,93,94,94,85,.,92
HCMV UL50-53 inh,.,.,-10,-10,-22,1,6,13
GIV Gai3 FP,110,192,.,101,.,102,105,105

17: Cc1cccc(-c2nccc(N3CCC(C(=O)NCCC(C)C)CC3)n2)c1
18: CCc1cc(C(Nc2cc(C)ccn2)c2ccc3c(c2)OCO3)c(NC(=O)c2ccccc2)s1 (stereo not given)
19: O=C(NCc1ccccn1)c1ccc(Cn2cc(Br)cn2)o1
20: O=C(NC1Cc2ccccc2C1)C1CCN(C(=O)OCc2ccccc2)CC1
21: CCOc1ccccc1-c1cc(NC(=O)Cn2ncc3c(=O)oc4ccccc4c32)on1
22: Cc1cc(=O)c2cccc(C(=O)Nc3ccccc3)c2[nH]1
23: CCn1c(Sc2ncnc3c2sc2nc(C)cc(C)c23)nnc1-c1cccs1
24: Cc1ccc(C2=CC(c3ccc(F)cc3)n3nc(NS(C)(=O)=O)nc3N2)cc1 (stereo not given)
Assay by compound,17,18,19,20,21,22,23,24
Sa growth inh,.,.,82,132,.,.,90,.
Sa growth inh second temp,.,.,85,94,.,.,93,.
HCMV UL50-53 inh,-5,-24,.,-4,-25,-7,-41,-43
GIV Gai3 FP,107,104,112,98,96,109,107,89

25: COc1cccc(Cc2nc3ccccc3nc2SCC(=O)NCCc2ccccc2)c1
26: COc1cc(C2C(C(=O)Nc3ccccc3)=C(C)Nc3ncnn32)ccc1OCc1ccccc1 (stereo not given)
27: CCCNC(=O)Cn1nc(C(F)(F)F)c2c1CCC2
28: Cc1ccc2oc(=O)c3cc(C(=O)NCc4ccco4)sc3c2c1
29: O=C(CCCn1c(=O)c2cccn2c2cccnc21)NCc1ccc(F)cc1
30: COc1ccccc1NC(=O)c1cnc2sccn2c1=O
31: CC(Sc1nnc(COc2ccccc2)n1-c1ccccc1)C(=O)O (stereo not given)
32: COc1cccc(/C=C/C(=O)Nc2c(F)c(F)c(F)c(F)c2F)c1OC
Assay by compound,25,26,27,28,29,30,31,32
Sa growth inh,74,.,92,107,95,.,95,102
Sa growth inh second temp,88,.,98,90,105,.,101,93
HCMV UL50-53 inh,.,-27,14,0,.,-24,-19,-4
GIV Gai3 FP,99,105,106,107,105,101,102,.

33: Cc1ccccc1NC(=O)CCNC(=O)Cn1ccc2ccccc2c1=O
34: NS(=O)(=O)c1ccc(NC(=O)/C=C/c2ccc3c(c2)OCCO3)cc1
35: CCN(Cc1ccccc1)C(=O)Cn1c(=O)n(-c2cccc(C)c2)c(=O)c2c1c1cc(OC)ccc1n2C
36: NS(=O)(=O)c1ccc(CCNC(=O)CCn2cnc3c([nH]c4ccccc43)c2=O)cc1
37: CCn1c(=O)c2cc(C(=O)Nc3cc(F)ccc3F)sc2c2ccccc21
38: Cn1cc(C(=O)NCc2ccccc2)c2[nH]c(=O)n(-c3ccccc3)c(=O)c21
39: Cc1ccc(OCC2Cn3c(nc4c3c(=O)[nH]c(=O)n4C)O2)cc1C (stereo not given)
40: COc1ccc2[nH]cc(CCNc3ccc(S(=O)(=O)c4ccc(C)c(C)c4)nn3)c2c1
Assay by compound,33,34,35,36,37,38,39,40
Sa growth inh,104,74,101,.,99,.,85,.
Sa growth inh second temp,87,96,94,.,86,.,83,.
HCMV UL50-53 inh,-25,-20,-16,-28,11,-17,.,-23
GIV Gai3 FP,101,.,98,109,109,103,101,97

Reformatted bar-delimited: part of the list above
cpd | SMILES | Sa growth inh | Sa growth inh second temp | HCMV UL50-53 inh | GIV Gai3 FP
38 | Cn1cc(C(=O)NCc2ccccc2)c2[nH]c(=O)n(-c3ccccc3)c(=O)c21 | . | . | -17 | 103
39 | Cc1ccc(OCC2Cn3c(nc4c3c(=O)[nH]c(=O)n4C)O2)cc1C (stereo not given) | 85 | 83 | . | 101

Continuation.
41: Cc1nn(-c2ccc(F)cc2)c(-n2cccc2)c1C(=O)NCCc1ccc(Cl)cc1
42: O=C(NC(=O)c1ccccc1)Nc1ccc(-n2nc(C(F)(F)F)cc2C(F)(F)F)cc1
43: CCN1CCC2(CC1)OC(=O)C(C)=C2C(=O)Nc1ccc2c(c1)OCCO2
44: COc1ccc(CCn2c(=O)c(C#N)cc3c(=O)n4cccc(C)c4nc32)cc1OC
45: CCC(C)C(=O)Nc1ccc(-c2nnc(-c3ccccc3)o2)cc1 (stereo not given)
46: Clc1ccc(CCNc2nc3cc(Cl)c(Cl)cc3n3cnnc23)cc1
47: COc1ccc2[nH]c(=O)c(CN(Cc3ccc(C)cc3)C(C)=O)cc2c1
48: Cc1ccc(-c2cc(NC(=O)COc3c(C)cc(C)cc3C)on2)cc1
Assay by compound,41,42,43,44,45,46,47,48
Sa growth inh,70,104,.,106,92,103,89,97
Sa growth inh second temp,79,101,.,79,93,87,110,95
HCMV UL50-53 inh,.,11,-8,-29,-1,-2,1,-23
GIV Gai3 FP,107,108,100,111,105,107,109,104

49: O=C(C[n+]1ccc(/C=N/O)cc1)N1CCCCC1
50: Fc1cc(Br)c(-n2cccc2)c(Br)c1
51: O=C(O)/C=C/c1ccco1
52: Cc1ccc(NC(=O)Cn2c(-c3nonc3N)nc3ccccc32)cc1C
53: COC(=O)C1=C(C)Nc2ncnn2C1c1ccc2ncccc2c1 (stereo not given)
54: CN(C)c1ccc(/C=N/O)c(F)c1C#N
55: CCc1ccc(CNC(=O)c2cnc3sc(N4CCCCCC4)nn3c2=O)cc1
56: CS(=O)(=O)c1csc(C(=O)NCc2cccnc2)c1Cl
Assay by compound,49,50,51,52,53,54,55,56
Sa growth inh,105,90,93,101,.,95,101,105
Sa growth inh second temp,96,87,103,104,.,88,87,95
HCMV UL50-53 inh,.,.,-1,3,-13,-32,.,-4
GIV Gai3 FP,105,93,101,114,106,98,103,101

57: Cc1cc(/C=C2\SC(=Nc3ccc(N4CCOCC4)cc3)N(C)C2=O)c(C)n1-c1cccnc1
58: Cc1cccc(N(C)c2nc3ccccc3n3cnnc23)c1
59: O=C(COC(=O)c1ccccc1)c1cccc(C(F)(F)F)c1
60: O=C(CSc1cn(CCNC(=O)c2ccccc2F)c2ccccc12)Nc1ccc(F)cc1
61: Cc1ccc([C@H]2[C@@H](C#N)[C@H](C#N)N3CCCN23)cc1
62: O=C(CSc1ncnc2ccccc12)N(Cc1ccccc1)Cc1ccccc1
63: O=C(Cc1ccc(NC(=O)N2CCCCc3ccccc32)cc1)N1CCCCC1
64: COc1ccccc1N1CCN(C(c2ccc(Br)cc2)c2nnc(-c3ccccc3)o2)CC1 (stereo not given)
Assay by compound,57,58,59,60,61,62,63,64
Sa growth inh,96,102,79,107,96,94,103,.
Sa growth inh second temp,95,86,95,88,85,62,93,.
HCMV UL50-53 inh,-6,-3,4,-7,-11,-30,6,-22
GIV Gai3 FP,106,101,.,105,.,.,105,101

Reformatted with bars between the fields: 2 of the compounds above
No. | structure | Sa growth inh | Sa growth inh second temp | HCMV UL50-53 inh | GIV Gai3 FP
62 | O=C(CSc1ncnc2ccccc12)N(Cc1ccccc1)Cc1ccccc1 | 94 | 62 | -30 | .
60 | O=C(CSc1cn(CCNC(=O)c2ccccc2F)c2ccccc12)Nc1ccc(F)cc1 | 107 | 88 | -7 | 105

(cont.)
65: O=C(NCc1ccco1)c1ccc2c(c1)N(Cc1ccccc1)CCS2
66: CC(NS(=O)(=O)c1ccc(Cl)s1)C1CC2CCC1C2 (stereo not given)
67: CCOc1ccc(NC(=O)N2CCN(Cc3nc4ccc(Cl)cc4o3)CC2)cc1
68: COc1ccc(C2NS(=O)(=O)N=C3CCCN32)c(OC)c1 (stereo not given)
69: CSC1=NC(C)=C(C(=O)Nc2ccccc2)C2(CCCCC2)C1C(N)=O (stereo not given)
70: O=C1CC(c2ccccc2)CC2=C1CN(C1CCCCC1)CN2 (stereo not given)
71: CC(=O)Oc1cccc(NC(=O)c2ccc3c(c2)C(=O)N(CC(C)C)C3=O)c1
72: COc1ccc(NC(=O)CCS(=O)(=O)c2cc3c4c(c2)CCN4C(=O)CC3)cc1OC
Assay by compound,65,66,67,68,69,70,71,72
Sa growth inh,111,62,.,107,112,90,99,94
Sa growth inh second temp,97,48,.,96,86,65,76,93
HCMV UL50-53 inh,-4,-1,-13,8,-5,2,-39,.
GIV Gai3 FP,101,.,110,.,.,103,99,104

73: Cc1cc(C)cc(NC(=O)c2ccc3c(c2)NC(=O)CO3)c1
74: CCCSc1ncc(Cl)c(C(=O)Nc2c(C(=O)Nc3ccc(OC)cc3)oc3ccccc23)n1
75: CC1CCCN(C(=O)c2ccc3nc[nH]c3c2)C1 (stereo not given)
76: Cn1cccc1C(=O)NC(=O)CSc1cccc[n+]1[O-]
77: Cc1cccc(Nc2nc(-c3ccccc3)c3cc(C)ccc3n2)c1
78: CCOc1ccc(NC(=O)c2sc(-n3nc(C)c(Cc4ccc(Cl)cc4)c3C)nc2C)cc1
79: c1coc(CNC2=NCCC2)c1
80: COc1ccc(CCNC(=O)c2cnc3sc(N4CCCCCC4)nn3c2=O)cc1OC
Assay by compound,73,74,75,76,77,78,79,80
Sa growth inh,.,100,95,101,89,105,87,91
Sa growth inh second temp,.,80,88,97,90,93,97,93
HCMV UL50-53 inh,14,-14,-17,-6,-46,-21,-26,.
GIV Gai3 FP,102,106,.,.,106,108,.,105

81: COCc1cc(=O)[nH]c(SCC(=O)c2ccccc2)n1
82: CCOc1ccccc1C(=O)NC1CCSC1=O (stereo not given)
83: NC(=O)Cn1c(=O)n(-c2ccc(F)c(Cl)c2)c(=O)c2sc3ccccc3c21
84: OC(CN1CCN(c2ccccc2F)CC1)c1c[nH]c2ccc(F)cc12 (stereo not given)
85: O=C(Nc1ccccc1)c1nnc(CCCC(=O)N2CCN(c3ccccn3)CC2)s1
86: NC(=O)COC(=O)Cc1ccc(Cl)c(Cl)c1
87: CC(=O)N1CCc2cc(S(=O)(=O)CCC(=O)Nc3ccc(F)cc3F)ccc21
88: COC(=O)CSc1ccc2nnc(-c3ccc(OC)cc3)n2n1
Assay by compound,81,82,83,84,85,86,87,88
Sa growth inh,110,108,89,.,.,128,.,96
Sa growth inh second temp,101,79,76,.,.,103,.,92
HCMV UL50-53 inh,19,-15,-12,-22,-37,7,-1,.
GIV Gai3 FP,101,107,107,110,104,.,108,110

89: CCn1cc(C(=O)N2CCN(c3cccc(Cl)c3)CC2)c(=O)c2cc(S(=O)(=O)N3CCOCC3)ccc21
90: N#Cc1nc2c(-c3nc4ccccc4s3)c(N)n(CC3CCCO3)c2nc1C#N (stereo not given)
91: COc1cc(C)ccc1OCCn1c(-c2ccc(Cl)cc2)nc2ccccc2c1=O
92: CCCN1CCCc2cc(CN(CCCN3CCOCC3)C(=O)Nc3ccc(Cl)c(Cl)c3)ccc21
93: COc1ccccc1OCc1ccc(C(=O)OCC2CCCO2)o1 (stereo not given)
94: CCn1c(C)nc2cc(-c3nnc(Nc4ccc(Cl)cc4)s3)ccc21
95: COc1cccc2c1Oc1ncccc1N(c1ccc(C(=O)NCc3ccc(C)o3)s1)C2
Assay by compound,89,90,91,92,93,94,95
Sa growth inh,105,105,101,136,94,69,98
Sa growth inh second temp,92,92,94,82,90,96,99
HCMV UL50-53 inh,-8,4,-12,.,-7,-13,23
GIV Gai3 FP,99,.,108,108,97,.,103
